Bioassay records from PubChem.
H5N1 antiviral = antiviral screen in MDCK cells, H5N1 avian flu; cytopathic effect, luminescence, 72 h; active compounds read high; no value below 0 was filed and about half of the inactive calls have no number; reference of the scale not given here; inhibition, % at 50 µM; actives 0.07% (n = 96,000); AID 740; in the data active = inhibition above about 25%
Starred values were filed as active, the others as inactive; i = inactive. Only part of the results is shown; count on the stated rates, not on these rows.

The first 19 compounds, ahead of the listing:
SMILES	H5N1 antiviral
CCN(CC(=O)NC1CCS(=O)(=O)C1)C(=O)COc1ccccc1-c1ccccc1 (stereo unspecified)	i
COc1ccc(C(=O)CSc2nnnn2Cc2ccccc2)cc1	1.2
O=C1CC(N(C(=O)c2ccco2)c2ccc(F)cc2)C(=O)N1c1ccc(F)cc1 (stereo unspecified)	i
c1coc(Cn2c(-c3ccco3)nc3ccccc32)c1	i
CCOC(=O)C1CCN(C(=O)CN(c2ccc(OC)cc2)S(=O)(=O)c2c(C)noc2C)CC1	0.2
CCOC(=O)Cn1c2c(c(-c3ccccc3OC)cc1=O)CCCC2	0.1
CC1(C)COC(c2cccn2Cc2ccccc2Cl)=N1	0.5
CCCCCc1nc2c(=O)n(C)c3ccccc3c2o1	0.1
N#Cc1c(NCCN)nc(-c2ccco2)c2c1CCCC2	i
O=C(Nc1ccc(F)c(Cl)c1)c1ccc2c(=O)n3c(nc2c1)CCCCC3	0.6
CCC(C)N(C)Cc1cccc(C2(O)CCN(S(=O)(=O)c3ccc(F)cc3)CC2)c1 (stereo unspecified)	i
COc1ccc(CCC(=O)N2CCc3ccccc32)cc1	0.1
COc1ccc(-c2nc(CNS(=O)(=O)c3cc(OC)ccc3OC)cs2)cc1	3.4
O=C(Cn1nnc(-c2ccccc2F)n1)Nc1ccc(S(=O)(=O)NC2CCCC2)cc1	i
Cc1nc(SCC(=O)Nc2cc(C)on2)c2c(C)c(C)sc2n1	i
FC(F)(F)c1cccc(NC(=S)Nc2cccc(Cl)c2)c1	3.8
O=C(O)CSc1cccc2cccc(C(=O)O)c12	0.4
CC1=CCC(C(=O)O)(C(=O)N/N=C/c2cccs2)C(c2ccc(Cl)cc2)C1 (stereo unspecified)	i
O=C(NCCc1ccccc1)c1cc2sccc2n1Cc1ccccc1	i

All compounds of this part, repeating the preview:
SMILES	H5N1 antiviral
CCN(CC(=O)NC1CCS(=O)(=O)C1)C(=O)COc1ccccc1-c1ccccc1 (stereo unspecified)	i
COc1ccc(C(=O)CSc2nnnn2Cc2ccccc2)cc1	1.2
O=C1CC(N(C(=O)c2ccco2)c2ccc(F)cc2)C(=O)N1c1ccc(F)cc1 (stereo unspecified)	i
c1coc(Cn2c(-c3ccco3)nc3ccccc32)c1	i
CCOC(=O)C1CCN(C(=O)CN(c2ccc(OC)cc2)S(=O)(=O)c2c(C)noc2C)CC1	0.2
CCOC(=O)Cn1c2c(c(-c3ccccc3OC)cc1=O)CCCC2	0.1
CC1(C)COC(c2cccn2Cc2ccccc2Cl)=N1	0.5
CCCCCc1nc2c(=O)n(C)c3ccccc3c2o1	0.1
N#Cc1c(NCCN)nc(-c2ccco2)c2c1CCCC2	i
O=C(Nc1ccc(F)c(Cl)c1)c1ccc2c(=O)n3c(nc2c1)CCCCC3	0.6
CCC(C)N(C)Cc1cccc(C2(O)CCN(S(=O)(=O)c3ccc(F)cc3)CC2)c1 (stereo unspecified)	i
COc1ccc(CCC(=O)N2CCc3ccccc32)cc1	0.1
COc1ccc(-c2nc(CNS(=O)(=O)c3cc(OC)ccc3OC)cs2)cc1	3.4
O=C(Cn1nnc(-c2ccccc2F)n1)Nc1ccc(S(=O)(=O)NC2CCCC2)cc1	i
Cc1nc(SCC(=O)Nc2cc(C)on2)c2c(C)c(C)sc2n1	i
FC(F)(F)c1cccc(NC(=S)Nc2cccc(Cl)c2)c1	3.8
O=C(O)CSc1cccc2cccc(C(=O)O)c12	0.4
CC1=CCC(C(=O)O)(C(=O)N/N=C/c2cccs2)C(c2ccc(Cl)cc2)C1 (stereo unspecified)	i
O=C(NCCc1ccccc1)c1cc2sccc2n1Cc1ccccc1	i
CC1(C)Cc2c(C#N)c(N3CCN(C(=O)c4ccccc4)CC3)nc(-c3ccco3)c2CS1	1.3
COCCCNC(=O)c1ccc2c(=O)n(C3CCCC3)c(=S)[nH]c2c1	i
CC1CC(C)CN(CCCNC(=O)CCNC(=O)Cn2ccc3ccccc3c2=O)C1 (stereo unspecified)	i
O=C(CCn1nnc2ccccc21)Nc1nnc(Cc2ccc(F)cc2)s1	i
Cc1noc(C)c1COc1cccc(C(=O)OCC(=O)N2CC(=O)Nc3ccccc32)c1	i
COC(=O)CSc1ncnc2c1sc1nc(-c3ccco3)c3c(c12)CC(C)(C)OC3	3.7
New compounds follow
SMILES	H5N1 antiviral
CC(C)COc1ccc(C2(C#N)CC[N+](C)(C)CC2)cc1	1.2
Cc1ccc(C(=O)c2ccc([N+](=O)[O-])cc2)cc1C	4.5
O=C(NCC1CCCO1)C(C(=O)c1ccc(F)cc1)n1ccccc1=O (stereo unspecified)	0.2
Cc1cccc(S(=O)(=O)Nc2ccc(C)c3c2OC(C)(C)C3)c1	1.7
CNCCc1nc(N)n[nH]1	0.2
COc1ccc(S(=O)(=O)N2CC3C4C=CC(C4)C3C2)cc1 (stereo unspecified)	0.3
COc1ccc(S(=O)(=O)N2CCCC(C(=O)NCCC3=CCCCC3)C2)cc1 (stereo unspecified)	i
CCCOC(=O)c1ccc(OCC(O)CN2C(=O)NC(C)(C)C2=O)cc1 (stereo unspecified)	0.2
Cc1ccc(/C=C/C(=O)c2ccccc2)cc1	i
CCCCn1c(O)c(C(C)=NCCc2ccccc2)c(=O)[nH]c1=O	i
COn1c(=O)c(=O)n(O)c2ccccc21	i
Cc1ccccc1N1C(=O)c2sc3nc4c(c(=O)n3c2C1=O)CCC4	i
O=C(CCC1COc2ccccc2O1)NCc1ccco1 (stereo unspecified)	3.0
CCC(C)c1ccc(NC(=O)c2cccs2)cc1 (stereo unspecified)	0.3
Cn1nnnc1SCC(=O)NCCCc1ccccc1	0.4
NC(=O)CSc1nc2scc(-c3ccco3)c2c(=O)n1-c1ccccc1	7.8
O=C(NCc1ccc2c(c1)OCO2)c1cc(-c2ccccc2Cl)on1	i
Cc1ccccc1-n1c(O)c(C=Nc2ccc(N(C)C)cc2)c(=O)[nH]c1=O	i
COCCNC(=O)C(c1ccc(C)o1)N(C(=O)c1snc(C(N)=O)c1N)c1cccc(C)c1 (stereo unspecified)	i
Cc1onc(-c2ccccc2)c1C(=O)N1CCCSC1=Nc1ccccc1	2.4
c1csc(Cn2nnnc2CN2CCN(c3nc4ccccc4s3)CC2)c1	i
C=CCn1c(CSc2nc3ccccc3s2)nnc1SCC(=O)NCCN1CCOCC1	8.2
Cn1c(=O)c2c(-c3cccc(F)c3)c3c(nc2n(C)c1=O)-c1ccccc1C3O (stereo unspecified)	1.6
CN(Cc1ccccc1)c1ncnc2ccc(Br)cc12	1.8
CN(C(=O)CSC1=NCCS1)c1ccccc1	0.3
Next records:
SMILES	H5N1 antiviral
CC(=O)NCc1ccc(-c2csc(N)n2)s1	i
COCCNC(=O)c1cc2c(=O)n(C)c3ccccc3c2n1C	0.8
COc1ccc(Cl)cc1C(=O)NCCN(C)C	1.8
CCCN(C(=O)CSc1nnc(-c2ccoc2C)n1N)C1CCS(=O)(=O)C1 (stereo unspecified)	0.1
Nc1nc(Nc2ccc(Cl)cc2Cl)nc(C(F)(F)F)n1	0.6
CCN1C(=O)c2ccc(C(=O)Nc3nccs3)cc2C1=O	1.6
COc1ccc(C(=O)NCc2cccnc2)cc1Br	i
CCC(O)c1cc2c(cc1NC(=O)c1ccc(C)cc1)OCCO2 (stereo unspecified)	i
O=C(CN(C(=O)CNC(=O)c1ccco1)c1ccc2c(c1)OCO2)NC1CCCCC1	i
COc1ccccc1CNC(=O)Cn1nnc(-c2ccncc2)n1	0.9
C=CCn1c(=N)n(CC(=O)OC)c2ccccc21	0.4
COc1ccc(N2C(=O)CCC(C(=O)N3CCCCC3)C2c2ccc(F)cc2)cc1 (stereo unspecified)	i
O=S1(=O)c2ccccc2N=NN1Cc1ccc(Cl)cc1	0.3
C=CCn1c(Cc2cccs2)nnc1SCC(=O)Nc1ccc(OC)cc1	0.8
Cc1ccc(N2CC(C(=O)NCCCn3ccnc3)CC2=O)cc1 (stereo unspecified)	i
CCN(CC)c1ncnc2sc3c(c12)CCC3	i
O=C(Cc1cccs1)Nc1ccc(S(=O)(=O)Nc2ncccn2)cc1	0.1
O=C(Nc1nccs1)C(NS(=O)(=O)c1ccc(Br)s1)c1ccccc1 (stereo unspecified)	2.0
CCN1CC=C2C(C#N)=C(N)C(C#N)(C#N)[C@H](c3cccc(OC)c3OC)[C@H]2C1	0.2
Cc1ccc(OCC(=O)Nc2ccccc2N2CCOCC2)c(C)c1	0.7
CCOC(=O)N1CCN(c2cc(=O)n(-c3ccc(Br)cc3)c(=O)[nH]2)CC1	i
CCOCCCNC(=O)c1ccc2c(c1)N(Cc1ccccc1)C(=O)CS2=O (stereo unspecified)	2.1
CCCN(CCC)C(=O)Cn1c2ccccc2c2nc(=O)cc(C)n21	0.7
Cc1c(=O)n(OCc2cccc(F)c2)c2ccccc2[n+]1[O-]	1.4
O=C1CC(c2cccs2)c2cc3c(cc2N1)OCCO3 (stereo unspecified)	i
Additional compounds:
SMILES	H5N1 antiviral
Cc1ccc(NC(=O)NC2(C(=O)NCc3ccccc3)CCCCC2)cc1	1.1
CC(C)CCn1c(SCC(=O)c2ccccc2)nc2c1c(=O)[nH]c(=O)n2C	1.2
COc1ccc(Oc2cc(C)c3cccc(C)c3n2)cc1	1.2
O=c1[nH]c(=S)n(CCC2=CCCCC2)c(O)c1C=NCCCn1ccnc1	0.1
CCCCn1c(=O)[nH]c(=O)c2c1nc(CN1C(=O)c3ccccc3S1(=O)=O)n2CCC	0.5
CCCCN(Cc1ccccc1)S(=O)(=O)c1ccc2[nH]c(=O)oc2c1	i
CC(C)(C)NC(=O)CSc1nc2ccccc2n1-c1ccccc1	i
O=[N+]([O-])c1cc(-c2ccc(/C=N/c3nc4ccccn4c3-c3ccco3)o2)ccc1Cl	i
O=C(O)CN1C(=O)CNC1=O	0.1
Cc1ccc(-c2cn3c(=S)[nH]nc3s2)cc1	0.1
COc1ccc(CN2CCN(c3ncccn3)CC2)c(OC)c1	i
CCOC(=O)C1C(=O)CC(C)(O)C(C(=O)OCC)C1c1ccc(Br)cc1 (stereo unspecified)	2.1
O=C(CSc1nnnn1-c1ccccc1F)Nc1nc2ccccc2s1	0.4
c1ccc(OCc2nnc3sc(C4COc5ccccc5O4)nn23)cc1 (stereo unspecified)	i
c1ccc(-c2csc(Cc3nnc4n3CCCCC4)n2)cc1	1.5
CSc1ccc(-c2nc3cnccn3c2Nc2ccc3c(c2)OCO3)cc1	i
COc1ccc(-c2cnc(SCC(=O)Nc3ccc4c(c3)OCO4)n2Cc2ccco2)cc1	i
CC(c1ccccc1)N1C(=O)CC(Sc2ncccc2C(=O)O)C1=O (stereo unspecified)	i
CCOc1ccc(NC(=O)c2cc3c(=O)n(C)c4ccccc4c3n2C)cc1	i
O=C(CCN1CCN(c2ccccc2F)CC1)Nc1ccc2c(c1)OCO2	i
Cn1c(=O)oc2cc(S(=O)(=O)N3CCCC(C(=O)NCCN4CCOCC4)C3)ccc21 (stereo unspecified)	0.9
CCC(c1nnc(SCC(=O)NC23CC4CC(CC(C4)C2)C3)o1)N(C)C (stereo unspecified)	i
Cc1ccc(/C=C(\C#N)C(=O)Nc2c(C)cccc2C)s1	i
O=C(CSc1nnc(-c2ccco2)o1)NC1CCCCCC1	0.7
CC(=O)N1CCN=C1SCc1cccc(C(F)(F)F)c1	i
(more compounds)
SMILES	H5N1 antiviral
O/N=C1/CCSc2ccccc21	i
CCC1CCCCN1C(=O)c1c[nH]c2ccc(S(=O)(=O)N(C)c3ccc(Cl)cc3)cc2c1=O (stereo unspecified)	i
Cc1ccc(S(=O)(=O)N/N=C/c2ccc(OCC(=O)Nc3ccccc3Cl)cc2)cc1	i
Cc1ccc2cc3c(N)c(C(=O)N4CCOCC4)sc3nc2c1	i
Cn1cccc1CNC1CCCC1	0.2
CC1(C(=O)O)CCC(C(=O)NC2CCCCC2)C1(C)C (stereo unspecified)	0.4
CCN1CCN(CCCOc2ccc(-c3ccccc3)cc2)CC1	i
O=S(=O)(c1cnccc1N1CCN(/N=C/c2ccc(Cl)cc2)CC1)N1CCCCC1	1.0
Cc1ccc(C(=O)CC2(O)C(=O)N(CCc3ccccc3)c3ccc(Br)cc32)o1 (stereo unspecified)	i
COC(=O)CSc1snnc1-c1ccc(F)cc1	i
COc1ccc(NC(=O)C23CC4CC(C2)CC(n2cnc(Br)n2)(C4)C3)cc1Cl	i
C=CCn1c(=O)[nH]c2cc(C(=O)N3CCN(c4ccc(C(C)=O)cc4)CC3)ccc2c1=O	i
O=C(NCCNCc1ccc(F)cc1)c1ccco1	0.1
CC(=O)c1cc(C)ccc1OC(=O)c1cccnc1	1.3
COCCn1c(=S)[nH]c2cc(C(=O)N3CCN(Cc4ccc5c(c4)OCO5)CC3)ccc2c1=O	4.7
Cc1cc([N+](=O)[O-])nn1CC(=O)NNC(=S)Nc1ccc(Cl)cc1	i
O=C(Nc1ccccc1)c1cc(-c2ccccc2Cl)no1	i
Cc1cc(OCCn2cc(/C(N)=N/O)c3ccccc32)ccc1Cl	i
Cc1c(OC(=O)c2ccc([N+](=O)[O-])cc2)c2c(c[n+]1C)COC(C)(C)OC2	0.1
CC1(C)NC(=O)N(CNc2cc(Cl)ccc2Cl)C1=O	2.3
Cc1cc(Cl)c(S(=O)(=O)NC(C(=O)O)C(C)C)cc1OCC(=O)NC1CCCCC1 (stereo unspecified)	0.4
O=C(Nc1nnc(-c2cccs2)o1)c1cccc(C(F)(F)F)c1	1.0
COc1ccc(CCNS(=O)(=O)c2cccc3nsnc23)cc1OC	i
O=C(CN1CCN(Cc2ccc3c(c2)OCO3)CC1)Nc1ccc2c(c1)OCO2	i
Cc1c(Br)c(C(N)=O)nn1C	i
(cont.)
SMILES	H5N1 antiviral
O=C(NCCN1CCCCCC1)C1CCN(S(=O)(=O)N2CCOCC2)CC1	1.1
CCOC(=O)c1ccccc1NC(=O)c1c(O)c2ccccc2n(CC)c1=O	i
COC(=O)c1c(C)[nH]c(C(=O)OCC(=O)NCC(C)C)c1C	0.2
CN(C)c1nc(-c2ccccc2)nc(-c2ccc(Cl)cc2)c1C#N	i
Cc1cc2c(=O)n(Cc3ccco3)c(SCC(=O)NCc3ccco3)nc2s1	i
CC1Cc2ccccc2N1C(=O)C1CCCN(S(=O)(=O)c2cccc3cccnc23)C1 (stereo unspecified)	3.9
N#CCC(=O)N/N=C/c1ccc(OS(=O)(=O)c2ccccc2)cc1	1.3
COc1cc2c(cc1OC)C(c1ccccc1O)N(C1CC(=O)N(c3ccccc3)C1=O)CC2 (stereo unspecified)	0.3
COc1cccc(/C=N/n2c(CO)nc3ccccc32)c1OC	i
CC(=O)N1CCCc2cc(S(=O)(=O)N(C)Cc3ccccc3)ccc21	1.1
